RE007 growth inh: less growth of the S. pombe RE007 Vpr strain | S. pombe RE007 Vpr strain, BacTiter-Glo ATP luminescence, 24 h; control for the full effect not named in the record | Potency, µM (titrated, usually from 92.2 µM), for the others: top-dose activity change, negative = less growth | 0.21% of 360,000 active; active = well fitted falling curve with a large enough effect; inconclusive = small, poorly fitted or top-dose-only effect; inactive = no such curve, though single readings can be large or run the other way;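 also: % is scaled to controls: 0 for no effect and ±100 for the full control effect; nearly all actives have a fitted effect of over 50% in size; the assay follows cell death caused by Vpr and the record does not say whether a fall means rescue or toxicity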
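Fission yeast RE007 carrying one integrated HIV-1 vpr copy, seeded at OD 0.01 in PMG+AL medium with 23 nL pinned compound. Grown 24 h at 30 degrees; viability read by BacTiter-Glo luminescence after 5 min.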
Marburg entry inh: blocks Marburg virus binding to or entry into cells; Marburg virus pseudotyped entry inhibition, cell reporter; control for the full effect not named in the record; about a third of the inactives were read at about 46 µM; 1.8% of 300,000 active; Potency, µM (top dose mostly 37.8 µM), for inactives: at the highest dose activity change, negative = inhibition, usual class: inhibitors; active = well fitted inhibition curve with a large enough effect; inconclusive = small, poorly fitted or top-dose-only effect, or effect the other way; inactive = flat fitted curve, though single readings scatter; tested in HEK293 cells; about a fifth of its hits are not listed in these tables; also: % is scaled to controls: 0 for no effect and ±100 for the full control effect; luciferase read-out
StopGo reporter: FMDV 2A StopGo reporter, luciferase signal. human cells with a luciferase reporter of 2A StopGo recoding; control for the full effect not named in the record. Potency, µM (titrated, usually from 57.9 µM), inactives show top-dose signal change, negative = less light. 1.2% of 410,000 active. AID 1159524; active = well fitted falling curve with a large enough effect; inconclusive = small, poorly fitted or top-dose-only effect; inactive = no such curve, though single readings can be large or run the other way; tested in HEK293T cells; also: % is scaled to controls: 0 for no effect and ±100 for the full control effect; nearly all actives have a fitted effect of over 45% in size; luciferase light after 4 h
NS1 inh: blocks influenza NS1 protein function. S. cerevisiae slowed by influenza A NS1, growth recovery by OD600. Potency, µM (series often up to 46.1 µM), for the others: at the highest dose activity, positive = more growth. 0.4% of 270,000 active. AID 2326; active means well fitted rising curve with a large enough effect; inconclusive means small, poorly fitted or top-dose-only effect; inactive means no such curve, though single readings can be large or run the other way; also: nearly all actives have a fitted effect of over 50% in size
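In this qHTS, NS1 from influenza A is expressed in budding yeast, where it slows growth. Cells are switched from glucose to 2% galactose medium (pH 6.0, -URA), treated with compound, and growth recovery is read at OD600.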
SARS PLP yeast: inhibitors of SARS-CoV papain-like protease in yeast | S. cerevisiae expressing SARS-CoV PLpro, growth rescue; control for the full effect not named in the record | Potency, µM (top dose mostly 32.9 µM), for the others: top-dose activity, positive = growth rescue | 0.19% of 330,000 active; active means well fitted rising curve with a large enough effect; inconclusive means small, poorly fitted or top-dose-only effect; inactive means no such curve, though single readings can be large or run the other way; also: 0% is about no effect; nearly all actives have a fitted effect of over 55% in size; growth read by luminescence after 48 h
Cruzain inh noDet: cruzain (T. cruzi) inhibition without detergent; P25779; purified cruzain, Z-FR-AMC fluorescence, no detergent; Potency, µM, inactives show max response, negative = inhibition, hits mostly inhibitors; 2.3% of 200,000 active; AID 1476;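 also: plate controls were enzyme without inhibitor for no effect and buffer without enzyme for full effect; nearly all actives have a fitted effect of over 40% in size; top concentration of the series not given in the record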
Target sequence (P25779 123-467 limits assumed): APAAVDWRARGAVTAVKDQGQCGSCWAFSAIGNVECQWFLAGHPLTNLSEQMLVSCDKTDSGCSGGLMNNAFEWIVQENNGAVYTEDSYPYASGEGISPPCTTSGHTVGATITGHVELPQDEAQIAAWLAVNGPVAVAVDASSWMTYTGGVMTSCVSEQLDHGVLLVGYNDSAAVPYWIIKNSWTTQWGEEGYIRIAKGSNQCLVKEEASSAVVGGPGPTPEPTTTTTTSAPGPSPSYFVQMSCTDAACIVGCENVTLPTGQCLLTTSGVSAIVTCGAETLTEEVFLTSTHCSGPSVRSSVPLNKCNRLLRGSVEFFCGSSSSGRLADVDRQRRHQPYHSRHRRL
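Purified cruzain at 1.5 nM, pre-incubated 15 min with compound at room temperature in 100 mM sodium acetate pH 5.5, 5 mM DTT, 0.00005% Triton X-100. Reaction started with 2 uM Z-FR-AMC; AMC fluorescence increase over 60 s gives rate.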
LASV entry inh: inhibitors of Lassa virus binding or cell entry; Potency, µM (series often up to 37.9 µM), without a hit: at the highest dose activity change, negative = inhibition, most hits filed as inhibitors; 1.2% of 300,000 active; Lassa virus pseudotype entry inhibition, cell reporter; control for the full effect not named in the record; active means well fitted inhibition curve with a large enough effect; inconclusive means small, poorly fitted or top-dose-only effect, or effect the other way; inactive means flat fitted curve, though single readings scatter; tested in HEK293 cells; also: % is scaled to controls: 0 for no effect and ±100 for the full control effect; nearly all actives have a fitted effect of over 50% in size; luciferase read-out
Cruzain Triton: inhibitors of Trypanosoma cruzi cruzain with detergent | P25779 | purified cruzain, Z-FR-AMC fluorescence, 0.01% Triton | Potency, µM, for inactives: max response, negative = inhibition, most hits filed as inhibitors | 0.43% of 200,000 active;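 also: plate controls were neutral wells for no effect and buffer without enzyme for full effect; nearly all actives have a fitted effect of over 40% in size; top concentration of the series not given in the record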
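Compounds were screened in titration against cruzain (1.5 nM) with 0.01% Triton X-100 to counter colloidal aggregation. Activity was the AMC fluorescence increase over 60 s after adding 2 uM Z-FR-AMC at pH 5.5.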
* = called active by the depositor; [ ] = another dose, or the depositor's remark. Unless noted, calls follow the shape of the dose curve; as a rule, active = well fitted curve in the direction sought with a large enough effect; inconclusive = small, poorly fitted or top-dose-only effect, or another doubt; inactive = no such curve, though single readings can be large; an effect the other way counts as inactive or inconclusive. Potency is read from the fitted curve at half-maximal effect.

What do the screens show for `CCOP(=O)(CN(CC)CCNP(=O)(OCC)OCC)OCC`?
RE007 growth inh: -4%; Marburg entry inh: 2%[46.1 µM]; StopGo reporter: -6%; NS1 inh: -2%; SARS PLP yeast: 8%; Cruzain inh noDet: -2%; LASV entry inh: 0%; Cruzain Triton: 5.0%

Results for CCCCCn1c(=S)[nH]c2cc(C(=O)N3CCN(C(=O)OCC)CC3)ccc2c1=O ?
RE007 growth inh: -3%; Marburg entry inh: -2%[46.1 µM]; StopGo reporter: inconclusive; NS1 inh: 3%; SARS PLP yeast: 1%

Results for CCOC(=O)C1=C(C)NC(=O)NC1c1ccc(Br)o1 (stereo not given) ?
RE007 growth inh: 1%; Marburg entry inh: inconclusive; StopGo reporter: 1%; NS1 inh: 9%; SARS PLP yeast: 13%; Cruzain inh noDet: 8%; LASV entry inh: inconclusive; Cruzain Triton: 0.1%

Results for COc1ccc(-c2cnn(-c3ccccc3)c2N)cc1OC ?
RE007 growth inh: 6%; Marburg entry inh: 30%[46.1 µM]; StopGo reporter: 53%[activator]; NS1 inh: -1%; SARS PLP yeast: -12%; Cruzain inh noDet: -2%; LASV entry inh: -7%; Cruzain Triton: 0.8%

Results for CC(=O)Nc1ccc(S(=O)(=O)NC2=NCN(C)CN2)cc1 ?
RE007 growth inh: 2%; Marburg entry inh: 4%[46.1 µM]; StopGo reporter: -1%; SARS PLP yeast: 0%; LASV entry inh: 1%[46.1 µM]

Results for COc1cc(/C=N/NC(N)=O)ccc1OCC(=O)Nc1cc(C)c(C)cc1Br ?
RE007 growth inh: 16%; StopGo reporter: 12%; NS1 inh: 1%; SARS PLP yeast: -1%

Results for O=C(OCC(=O)N1CCc2ccccc21)c1ccccc1[N+](=O)[O-] ?
RE007 growth inh: -9%; Marburg entry inh: -52%; StopGo reporter: -54%; SARS PLP yeast: -7%; LASV entry inh: inconclusive

How did CCOC(=O)CSc1nnc(CNC(=O)c2cccs2)n1-c1cc(C)ccc1C do in these assays?
RE007 growth inh: -11%; Marburg entry inh: 6%; StopGo reporter: 0%; NS1 inh: -3%; SARS PLP yeast: 2%; Cruzain inh noDet: -3%; LASV entry inh: 0%; Cruzain Triton: 3.3%

What do the screens show for `COc1ccc(C(=O)CN2CC(C)SC2=Nc2ccc(Cl)cc2)cc1` (stereo not given)?
RE007 growth inh: -8%; Marburg entry inh: -13%; StopGo reporter: 0%; NS1 inh: -9%; SARS PLP yeast: 8%; Cruzain inh noDet: 7%; LASV entry inh: 1%; Cruzain Triton: -3.6%

What do the screens show for `COc1ccc(Cl)c2c1[nH]c1nc(SCc3ccccn3)nnc12`?
RE007 growth inh: -28%; Marburg entry inh: -28%[46.1 µM]; StopGo reporter: 41%[activator]; SARS PLP yeast: -2%; LASV entry inh: -25%

How did Cc1ccc(C)c(S(=O)(=O)N2CCC3(CC2)OCCO3)c1 do in these assays?
RE007 growth inh: 13%; Marburg entry inh: 14%[46.1 µM]; StopGo reporter: 7%; NS1 inh: 5%; SARS PLP yeast: inconclusive; LASV entry inh: 14%[46.1 µM]

Results for COc1ccc(-c2nc3c([nH]2)c(=O)n(C)c(=O)n3C)c(OC)c1 ?
RE007 growth inh: -1%; Marburg entry inh: 1%; StopGo reporter: 26%; NS1 inh: 1%; SARS PLP yeast: -6%; Cruzain inh noDet: 1%; LASV entry inh: 21%; Cruzain Triton: 7.7%

How did O=S(=O)(c1cccs1)N1CN(Cc2ccc(F)cc2)c2nc3ccccc3nc21 do in these assays?
RE007 growth inh: -12%; Marburg entry inh: 0%; StopGo reporter: 32%[activator]; NS1 inh: -1%; SARS PLP yeast: -3%; Cruzain inh noDet: 3%; LASV entry inh: 13%; Cruzain Triton: 6.2%

Results for COc1ccccc1N1C(=O)CCC1(C#N)c1ccc(Br)cc1 (stereo not given) ?
RE007 growth inh: -18%; Marburg entry inh: -24%; StopGo reporter: -21%; NS1 inh: -130%; SARS PLP yeast: 7%; Cruzain inh noDet: 6%; LASV entry inh: 14%; Cruzain Triton: 1.3%

Results for O=c1c(N2CCc3ccccc3C2)csc2ccc(F)cc12 ?
StopGo reporter: 33%[activator]; Cruzain inh noDet: 3%; LASV entry inh: 3%[46.1 µM]; Cruzain Triton: -3.6%

How did CCCC(=O)c1cc2c(cc1NC(=O)c1cccs1)OCCO2 do in these assays?
RE007 growth inh: 22%; Marburg entry inh: 24%[46.1 µM]; StopGo reporter: -11%; NS1 inh: -1%; SARS PLP yeast: 9%; Cruzain inh noDet: -6%; LASV entry inh: -7%; Cruzain Triton: -11%

How did CCc1ccc(NC(=O)Cn2c(=O)n(CCCC(=O)NCCc3ccc(OC)c(OC)c3)c(=O)c3ccccc32)cc1 do in these assays?
Marburg entry inh: -17%[46.1 µM]; StopGo reporter: -24%; Cruzain inh noDet: 1%; LASV entry inh: 22%[46.1 µM]; Cruzain Triton: -3.4%

Results for CCOc1ccc(CCNC(=O)CN2C(=O)NC3(CCCCC3)C2=O)cc1OCC ?
RE007 growth inh: 5%; Marburg entry inh: -20%; StopGo reporter: -1%; SARS PLP yeast: 5%; LASV entry inh: -23%

What do the screens show for `O=C1CCC([N+](=O)[O-])C(c2ccccc2Br)N1` (stereo not given)?
RE007 growth inh: 4%; StopGo reporter: -9%; NS1 inh: 9%; SARS PLP yeast: 2%

How did CS(=O)(=O)c1ccccc1COC(=O)Nc1ccc(Cl)cc1 do in these assays?
RE007 growth inh: 1%; Marburg entry inh: inconclusive; NS1 inh: -13%; SARS PLP yeast: -3%; Cruzain inh noDet: 1%; LASV entry inh: 24%; Cruzain Triton: -7.1%

How did O=C(CSc1nc2ccc([N+](=O)[O-])cc2s1)NC1CCS(=O)(=O)C1 (stereo not given) do in these assays?
RE007 growth inh: 10%; Marburg entry inh: inconclusive; StopGo reporter: -2%; SARS PLP yeast: 0%; LASV entry inh: 3%

How did Nc1nonc1-c1noc(CCCCCN2C(=O)c3ccccc3C2=O)n1 do in these assays?
RE007 growth inh: 10%; Marburg entry inh: -19%[46.1 µM]; StopGo reporter: 0%; NS1 inh: -3%; SARS PLP yeast: 1%; Cruzain inh noDet: -13%; LASV entry inh: 4%; Cruzain Triton: -5.0%

What do the screens show for `O=C(COC(=O)c1ccc(Br)o1)Nc1ccc2c(c1)OCCO2`?
RE007 growth inh: 10%; Marburg entry inh: inconclusive; StopGo reporter: 2%; SARS PLP yeast: 2%; LASV entry inh: -9%

What do the screens show for `O=S(=O)(c1ccc(Cl)cc1)c1nc(-c2ccco2)oc1N1CCCCC1`?
RE007 growth inh: -8%; Marburg entry inh: inconclusive; StopGo reporter: 22%; NS1 inh: 20%; SARS PLP yeast: 2%; LASV entry inh: -10%

How did COc1ccccc1NC(=O)COC(=O)CNC(=O)C1CCCCC1 do in these assays?
RE007 growth inh: 8%; Marburg entry inh: -18%[46.1 µM]; StopGo reporter: -3%; SARS PLP yeast: -1%; LASV entry inh: -10%[46.1 µM]

How did O=C(/C=C/c1ccccc1)Nc1ccc(S(=O)(=O)N2CCOCC2)cc1 do in these assays?
RE007 growth inh: 7%; Marburg entry inh: 7%; StopGo reporter: 2%; LASV entry inh: inconclusive

How did COC(=O)c1sc2ccccc2c1NC(=O)c1coc2ccccc2c1=O do in these assays?
RE007 growth inh: 7%; Marburg entry inh: 15%; StopGo reporter: 0%; NS1 inh: 9%; SARS PLP yeast: 17%; Cruzain inh noDet: -6%; LASV entry inh: 11%; Cruzain Triton: -5.3%

How did CCc1ccc(-c2nc3c(c(SCc4ccc(F)cc4)n2)Cc2c(CO)cnc(C)c2O3)cc1 do in these assays?
StopGo reporter: -15%; Cruzain inh noDet: 6%; LASV entry inh: inconclusive; Cruzain Triton: -2.2%

How did Cc1ccc(NC(=O)CCNC(=O)c2ccc(Br)cc2)cc1S(=O)(=O)N1CCOCC1 do in these assays?
RE007 growth inh: 20%; Marburg entry inh: 11%; StopGo reporter: -20%; SARS PLP yeast: 6%; LASV entry inh: -7%

What do the screens show for `O=C(O)C1CCC(=O)N1C(=O)OCc1ccccc1` (stereo not given)?
RE007 growth inh: 9%; StopGo reporter: 3%; NS1 inh: 0%; SARS PLP yeast: -1%

What do the screens show for `COc1ccc(CCC(=O)NC(C)C2CCCO2)cc1` (stereo not given)?
RE007 growth inh: -8%; Marburg entry inh: 13%; StopGo reporter: 0%; NS1 inh: 3%; LASV entry inh: inconclusive

How did COc1cccc(OC(=O)N2CCOCC2)c1 do in these assays?
RE007 growth inh: -18%; Marburg entry inh: 10%[46.1 µM]; StopGo reporter: 42%[activator]; SARS PLP yeast: 0%

Results for CCCCOCCCNC(=O)/C=C/c1ccccc1Cl ?
RE007 growth inh: -4%; Marburg entry inh: inconclusive; StopGo reporter: 1%; LASV entry inh: inconclusive

What do the screens show for `COc1cccc(NC(=O)NNC(=O)CCc2ccc(O)c(O)c2)c1`?
RE007 growth inh: 1%; Marburg entry inh: -4%[46.1 µM]; StopGo reporter: 3%; NS1 inh: 3%; SARS PLP yeast: 15%; LASV entry inh: 3%[46.1 µM]

Results for Cc1ccc(S(=O)(=O)N2CCN(CC(=O)NC(C)c3ccccc3)CC2)cc1 (stereo not given) ?
RE007 growth inh: 0%; Marburg entry inh: 24%; StopGo reporter: -20%; SARS PLP yeast: -2%; LASV entry inh: -22%[46.1 µM]

How did Cc1ccc(NC(=O)CCOc2ccccc2C)cc1F do in these assays?
RE007 growth inh: 1%; Marburg entry inh: 5%[46.1 µM]; StopGo reporter: 27%; NS1 inh: -8%; SARS PLP yeast: -3%; LASV entry inh: -7%

How did COC(=O)c1c(NC(=O)c2cccs2)sc2c1CCC(C)C2 (stereo not given) do in these assays?
RE007 growth inh: -17%; Marburg entry inh: -4%; StopGo reporter: 40%[activator]; NS1 inh: -24%; SARS PLP yeast: 1%; Cruzain inh noDet: -4%; LASV entry inh: inconclusive; Cruzain Triton: -2.0%

What do the screens show for `CCn1c(=O)c(C(=O)Nc2ncccc2O)c(O)c2ccccc21`?
RE007 growth inh: -25%; Marburg entry inh: inconclusive; StopGo reporter: -24%; NS1 inh: -88%; SARS PLP yeast: -2%; LASV entry inh: 25%

Results for CCN(CC)CCCNC(=O)c1c(C)oc2ncn(CC(C)C)c(=O)c12 ?
StopGo reporter: 14%; Cruzain inh noDet: -13%; LASV entry inh: 3%[46.1 µM]; Cruzain Triton: -0.7%
